HSD17B inh: qHTS Assay for Inhibitors of HSD17B4, hydroxysteroid (17-beta) dehydrogenase 4; 3-hydroxyacyl-CoA dehydrogenase type-2 (Homo sapiens), Q99714; recombinant HSD17B10, NADH fluorescence kinetic; many of its hits are not listed in these tables; Potency, µM (top dose mostly 57.1 µM), for the others: at the top dose activity change, negative = inhibition, most hits filed as inhibitors; 75,000 compounds, 7.6% hits; AID 893, 2007; active = well fitted inhibition curve with a large enough effect; inconclusive = small, poorly fitted or top-dose-only effect; inactive = no such curve, though single readings can be large or run the other way;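 also: the protocol describes HADH2 (HSD17B10) and not the HSD17B4 of the title; nearly all actives have a fitted effect of over 70% in size; most hits overshoot -100% by far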
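His-tagged E. coli-expressed HADH2 at 20 nM in 100 mM Tris-HCl pH 9.0 with 0.01 % Tween-20, preincubated 15 min with compound at room temperature. Reaction with 1 mM NAD+ and 90 uM beta-hydroxybutyryl coenzyme A; NADH fluorescence (360/450 nm) read kinetically over 4 min, last minus first point.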
Starred values were filed as active, the others as inactive; ? = inconclusive; [ ] = remark or other dose. % is scaled to controls: 0 for no effect and ±100 for the full control effect; potency is read from the fitted curve at half-maximal effect. An excerpt, so the mix of outcomes need not match the whole.

compound	HSD17B inh
COC(=O)c1cc2c(C)nn(-c3ccccc3)c2s1	31.6µM*
CCOC(=O)COc1ccc2nsnc2c1Cl	25.1µM*
COC(=O)c1ccccc1NC(=O)CCNC(=O)Cn1cnc2ccccc2c1=O	-18.8%
O=C(c1cc(-c2ccccc2)nc2ccccc12)N1CCOCC1	-3.3%
O=C(Nc1ccccc1C(=O)NC1CCCC1)NC1CCCC1	-2.2%
Cc1ccc2nc(SCC(=O)O)nc(C)c2c1	-6.8%
CC1(C)CC(=O)N(CC(=O)O)c2ccccc2S1(=O)=O	-1.6%
O=C(CCNC(=O)c1ccc(Br)o1)NCc1ccccn1	0.0%
COC(=O)CC1SC(=O)NC1=Nc1ccccc1 (stereo not drawn)	10.1%
Cc1c(NC(=O)NCCN2C(=O)C3C4C=CC(C4)C3C2=O)c(=O)n(-c2ccccc2)n1C (stereo not drawn)	-3.0%
O=C(OCN1C(=O)c2ccccc2C1=O)c1ccco1	?
COC(=O)Nc1nn(Cc2ccccc2F)cc1Br	-15.6%
NC(=O)c1oc2ccccc2c1NC(=O)CN1CCCCC1	2.4%
O=C(c1ccncc1)N(Cc1ccccc1)Cc1nc2ccccc2c(=O)[nH]1	5.0%
Cc1cccn2c(=O)c3cc(C(=O)N4COCC4(C)C)n(C)c3nc12	7.94µM*
CCCC(=O)N(c1ccc2oc(=O)sc2c1)S(=O)(=O)c1cccs1	25.1µM*
C[N+]1(C)CC(O)[C@H](C(=O)[O-])C1 (stereo partly drawn)	-2.3%
O=C(CCCNS(=O)(=O)c1cccs1)N1CCN(c2cccc(Cl)c2)CC1	-0.4%
NC(=O)Cn1c(=O)oc2ccccc21	7.9%
COc1ccccc1-c1c(C)nn2c(N3CCC4(CC3)OCCO4)cc(C)nc12	0.4%
Cn1c(C(=O)NCc2cccnc2)cc2sc(Cl)cc21	-2.6%
Oc1ccccc1NCC(O)Cn1ccc2ccccc21 (stereo not drawn)	?
Cc1cc(=O)oc(C)c1C(=O)NCCCN1CCN(c2ccccc2F)CC1	3.7%
COc1ccc(NC2CC(=O)N(c3ccccc3)C2=O)cc1 (stereo not drawn)	-2.0%
O=C(CCc1n[nH]c(=O)[nH]c1=O)N1CCCCC1	-3.2%
COc1ccc(CNC(=O)c2cnc3scc(C)n3c2=O)cc1	25.1µM*
COc1cc2c(C(=O)N3CCN(Cc4ccc5c(c4)OCO5)CC3)cn(C)c(=O)c2cc1OC	-0.8%
CCn1c2ccccc2c2nnc(SCCCn3c(=O)[nH]c4ccccc43)nc21	-7.6%
CCOC(=O)/C(C#N)=C(\N)C(C)C(=O)Nc1ccccn1 (stereo not drawn)	-0.7%
CCOc1ccc(-n2c(=O)cc(N3CCN(c4ccc(F)cc4)CC3)[nH]c2=O)cc1	6.0%
c1coc(CNc2c3c(nc4ncnn24)CCC3)c1	-5.8%
O=C(NC(NC1CCS(=O)(=O)C1)C(=O)c1cccs1)c1ccccc1 (stereo not drawn)	4.7%
O=C(c1ccncc1)N1CCC2(CCCN(c3ccccn3)C2)CC1	?
Cc1ccc(S(=O)(=O)N2CC3CCC2C3)cc1 (stereo not drawn)	-6.6%
COC(=O)C1=C(C)NC(C)=C(C(=O)OCCN(C)Cc2ccccc2)[C@H]1c1cccc([N+](=O)[O-])c1	-11.6%[25.6 µM]
CC[C@@H]1Cc2cc(O)ccc2C2=C1c1ccc(O)cc1C[C@H]2CC	25.1µM*
COc1cc2c(cc1OC)C(=NCCC(=O)O)NC(C)(C)C2	31.6µM*
CC(=O)c1cccc(NC(=O)c2cc(-c3ccc(C)cc3)on2)c1	-1.0%
Cc1ccc2oc(=O)c3cnn(CC(=O)NC4CCCCC4C)c3c2c1 (stereo not drawn)	5.7%
c1csc(-c2noc(COc3ccc4c(c3)CCCC4)n2)c1	-9.7%
CCCOc1ccc(C(=O)NCCC(=O)NCCCC(=O)OCC)cc1	10.7%
Cc1cc(C(=O)COC(=O)CCC(=O)c2ccc3c(c2)OCCO3)c(C)n1Cc1ccco1	-21.8%
CCC(=O)Nc1ncnc2ncn(C(=O)CC)c12	-1.5%[11.4 µM]
O=C(CSc1nnc(Cc2cccs2)n1-c1ccccc1)NC1CCCCC1	?
Nc1nc2c(nc(Br)n2C2OC(CO)C(O)C2O)c(=O)[nH]1 (stereo not drawn)	7.9%
O=C(CSc1nc2ccccc2o1)NCc1ccc2c(c1)OCO2	-2.1%
CN(c1ccc(Cl)cc1)c1cc(=O)n(C)c2ccccc12	-12.9%
CCCN1CCN(CCCNC(=O)Cn2nc(-c3ccc(Cl)cc3)ccc2=O)CC1	-1.2%
O=S(=O)(c1ccc(Cl)cc1)N1CCN(c2ccc(N3CCOCC3)nn2)CC1	?
CCn1c2c(c3ccc(OC)cc31)CCCC2=O	25.1µM*

(further entries)
compound	HSD17B inh
Nc1nc2c(ncn2[C@@H]2O[C@H](CO)[C@@H](O)[C@H]2O)c(=O)[nH]1	5.7%
O=C(OCc1nc2ccccc2s1)c1cccc(S(=O)(=O)N2CCOCC2)c1	-22.2%
Cc1csc(SC(C)C(=O)Nc2ccc(S(=O)(=O)N3CCCC3)cc2)n1 (stereo not drawn)	-2.0%
CSc1nnc(-c2sc3cc(Cl)ccc3c2Cl)n1C	0.3%
CCOC(=O)CC12CN3CN(C1)CC(CC(=O)OCC)(C3)C2=O	12.3%
CCOC(=O)c1sc(NC(=O)c2ccc(S(=O)(=O)N3CCOCC3)cc2)cc1C	110.8%[activator]
CS(=O)(=O)N(CC(=O)NCc1ccncc1)c1cc(Cl)cc(Cl)c1	4.2%
CCCn1c(SCC(=O)N2CCc3ccccc32)nnc1-c1ccco1	9.4%
CCOC(=O)c1ccccc1NC(=O)CC1SC(=NC)N(C)C1=O (stereo not drawn)	-5.6%
CN(Cc1ccccc1)Cc1nc2c(c(=O)n(C)c(=O)n2C)n1CCc1ccccc1	0.9%
COc1ccc2c(=O)c3c(=O)n(Cc4ccco4)c(-c4ccc(C)cc4)nc3oc2c1	?
CCOCCCNC(=O)CCNS(=O)(=O)c1ccc(C)cc1	10.1%
CC(=O)Nc1ccc(S(=O)(=O)N(CC(=O)O)Cc2ccccc2)cc1	3.2%
Cc1nn(-c2ccccc2)c(C)c1C(=O)OCC(=O)NC(=O)NC1CCCCC1	-4.0%
CNC(=O)CSc1nnc(-c2cc(C)cc(C)c2)o1	0.7%
CCn1c(=O)cc(OCC(=O)NCc2ccco2)c2ccccc21	?
COc1ccc(OC)c(C(c2nnnn2Cc2ccccc2)N2CCN(C3CCCCC3)CC2)c1 (stereo not drawn)	-13.8%
Cc1cc(C)c(C#N)c(SCC(O)CS(=O)(=O)Cc2ccccc2)n1 (stereo not drawn)	8.6%
CCc1nc(NCC2CCCO2)c2oc3ccccc3c2n1 (stereo not drawn)	0.5%
C=CC[C@@H]1C=C[C@@H](O/N=C\C[C@@H]2C=C[C@H](OC(C)=O)[C@H](COC(C)=O)O2)[C@@H](CO)O1	6.6%[11.4 µM]
Cc1cc(C(=O)CSc2n[nH]c(N)n2)c(C)n1-c1cc(F)ccc1F	-21.5%
c1ccc2c(-c3nc4ncccc4o3)cccc2c1	25.1µM*
Cc1[nH]c2ccccc2c1SCC(=O)N1CCOCC1	13.9%
O=C(Nc1ccc(CCC(=O)N2CCCC2)cc1)c1ncn[nH]1	-5.2%
Cc1cnc(NC(=O)CSc2nnc(-c3ccccc3)n2Cc2ccccc2)s1	-0.9%

Arranged by heavy-atom count (falling): some entries from above
compound	HSD17B inh
COC(=O)C1=C(C)NC(C)=C(C(=O)OCCN(C)Cc2ccccc2)[C@H]1c1cccc([N+](=O)[O-])c1	-11.6%[25.6 µM]
Cc1cc(C(=O)COC(=O)CCC(=O)c2ccc3c(c2)OCCO3)c(C)n1Cc1ccco1	-21.8%
COc1cc2c(cc1OC)C(=NCCC(=O)O)NC(C)(C)C2	31.6µM*
O=C(OCN1C(=O)c2ccccc2C1=O)c1ccco1	?

2 entries from above, field by field.
> CCOC(=O)CC12CN3CN(C1)CC(CC(=O)OCC)(C3)C2=O
  HSD17B inh: 12.3%
> CCOC(=O)c1sc(NC(=O)c2ccc(S(=O)(=O)N3CCOCC3)cc2)cc1C
  HSD17B inh: 110.8%[activator]

Going on with the list:
compound	HSD17B inh
COC(=O)c1nc(C(=O)OC)c(C(=O)OC)nc1C(=O)OC	-1.7%
CC1(C)Oc2ccc3ccc(=O)oc3c2/C(=C/Nc2ccccn2)C1=O	-0.8%
COc1ccc(CCNS(=O)(=O)c2ccc3c(c2)OCCO3)cc1OC	0.0%
CCCCC(=O)NC(Nc1nc(C2CC2)cs1)(C(=O)OCC)C(F)(F)F (stereo not drawn)	-6.9%
O=C(N1CCCCC1)C12CC3CC(C1)CC(C(=O)N1CCCCC1)(C3)C2	7.0%
COc1ccccc1N1CCN(C(=O)c2ccc(C(C)(C)C)cc2)CC1	-4.3%
O=C(c1ccc2c(c1)C(=O)N(CCCO)C2=O)c1ccc2c(c1)C(=O)N(CCCO)C2=O	3.1%
COC(=O)CSc1nc(C2CC2)cc(C(F)(F)F)c1C#N	-0.1%
CC1(C(=O)O)CCC(C(=O)Nc2ccc(S(N)(=O)=O)cc2)C1(C)C (stereo not drawn)	3.2%
COc1ccc(-c2nc(N)n[nH]2)cc1OC	?
CC(C)=CCC/C(C)=C/CC/C(C)=C/CC/C(C)=C/CO	-7.1%
CCN(CC)C(=O)CSc1nnc(-c2cc3ccccc3cc2O)n1CC	-6.5%
CCOc1ccc(OCc2ccc(C(=O)NCC3CCCO3)o2)cc1 (stereo not drawn)	7.9%
Clc1ccccc1-c1cc(NCc2cccnc2)ncn1	2.3%
O=c1n(-c2ccccc2)c(=O)n2n1CCCC2	2.2%
COc1ccc(CNc2ccnc(-c3ccccc3Cl)n2)c(OC)c1	4.6%
COc1cccc(C(c2sc3nc(C)nn3c2O)N2CCc3ccccc3C2)c1 (stereo not drawn)	6.8%
CCCc1cc(N2CCCC(C(=O)Nc3c(OC)cccc3OC)C2)n2ncnc2n1 (stereo not drawn)	-3.2%
COc1ccc(-c2cc(=O)c3ccc(O)cc3o2)cc1	-16.1%
CCCCC(=O)Nc1cccc(NC(=O)CC)c1	8.1%
O=CN1CCN(C[C@H](O)CN2CCCCC2)CC1	-0.7%[11.4 µM]
CS(=O)(=O)CCC(C(=O)N1CCOCC1)N1C(=O)c2cc(Cl)c(Cl)cc2C1=O (stereo not drawn)	1.7%
CCOC(=O)C1=C(C)OC(N)=C(C#N)C1C1CCCCC1 (stereo not drawn)	6.0%
N#Cc1ccccc1NC(=O)Nc1cccc(Cl)c1	?
COc1ccc(CCNc2oc(-c3ccc(C)cc3)nc2C#N)cc1OC	31.6µM*
CN(CC(=O)NCc1cccs1)S(=O)(=O)c1cccc2cccnc12	-2.8%
CC1(C)CC(=O)C(C=NCCN2CCN(C(=O)CC3CCCC3)CC2)=C(O)C1	-0.7%
Cc1ccc(-c2cc(C(F)(F)F)n3ncc(C(=O)O)c3n2)cc1	-11.2%
O=C(COc1ccccc1)N1CCN(C(=O)c2cccc(F)c2)CC1	5.1%
COc1ccc(S(=O)(=O)N2CCN(C(=O)COc3ccc4c(C)cc(=O)oc4c3)CC2)cc1	31.6µM*
CCCN(CCC)C1CC(=O)N(Cc2ccccc2)C1=O (stereo not drawn)	?
CC(C)CN(CC(C)C)S(=O)(=O)N1CCC(C(=O)NCc2ccc(F)cc2)CC1	7.0%
COC(=O)CCC(=O)Oc1ccc(OC(=O)CCC(=O)OC)cc1	?
CCN(CC)CCNC(=O)COc1ccc(OC)cc1	-5.1%
Cc1c(C(=O)OC(C)C)[nH]c2c1C(=O)CCC2	6.5%
COc1ccccc1NC(=O)c1ccc(COc2ccccc2OC)o1	97.3%[activator]
CC(c1cccnc1)N(CCN(C)C)C(=O)Nc1ccc(Cl)c(Cl)c1 (stereo not drawn)	5.2%
O=C1CN(C(=O)COc2ccccc2)CCN1	-9.1%
O=C(NC1CCN(Cc2ccccc2)CC1)C1CCN(c2nnc(-n3cccc3)s2)CC1	-1.6%
COc1cc(NC(=O)C2CCCO2)c(C(=O)O)cc1OC (stereo not drawn)	-1.4%
Cc1[nH]c2ccccc2c1C(O)CN1CCN(c2cccc(C(F)(F)F)c2)CC1 (stereo not drawn)	-17.4%
CCn1nnc(-c2ccccc2NC(=O)c2cc(OC)cc(OC)c2)n1	-25.7%
Cc1onc(-c2ccccc2)c1C(=O)NCc1ccccn1	0.0%
O=C(c1cc(-c2ccccc2O)on1)N1CCCC1	1.2%
CNC(=O)c1cccc(N2CCCC2=O)c1	0.1%
Cn1c(=O)c2c(ncn2CC(=O)OCc2ccccc2)n(C)c1=O	4.4%
Cn1c(=O)c2c(ncn2CC(=O)NCc2cccnc2)n(C)c1=O	3.4%
COc1ccc(CCNS(=O)(=O)c2ccccc2)cc1OC	-0.1%
CCN1CCN(Cc2ccc(NC(=O)Nc3ccccc3)cc2)CC1	5.2%
CCCCCCOC(=O)NCC(O)c1ccccc1 (stereo not drawn)	3.8%
CCOc1ccc(S(=O)(=O)Nc2ccc(Cl)cn2)c(C)c1C	-18.6%

Assay outcomes (PubChem BioAssay)
